HPGD block = inhibitors of human 15-hydroxyprostaglandin dehydrogenase (HPGD); P15428; Potency, µM, for inactives: top-dose activity change, negative = inhibition, most hits filed as inhibitors; purified HPGD, NADH fluorescence kinetic, PGE2 substrate; 150,000 compounds, 4.3% hits; AID 894; active = well fitted inhibition curve with a large enough effect (not every such curve was filed as active); inconclusive = small, poorly fitted or top-dose-only effect, or another doubt; inactive = no such curve, though single readings can be large or run the other way;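 further: top concentration of the series not given in the record; plate controls included wells without enzyme; inactives centre near -10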
Target sequence (P15428 whole entry, looked up): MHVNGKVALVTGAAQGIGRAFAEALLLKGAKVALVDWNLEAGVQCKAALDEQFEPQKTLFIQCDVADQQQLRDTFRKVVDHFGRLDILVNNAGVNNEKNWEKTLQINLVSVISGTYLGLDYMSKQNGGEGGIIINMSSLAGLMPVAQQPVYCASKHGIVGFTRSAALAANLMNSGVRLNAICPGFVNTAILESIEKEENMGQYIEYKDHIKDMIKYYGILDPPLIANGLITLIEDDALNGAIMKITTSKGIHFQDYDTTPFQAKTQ
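20 nM HPGD preincubated 15 min at room temperature with compound in 50 mM Tris-HCl pH 8, 0.01% Tween 20. Started with 1 mM NAD+ and 30 uM prostaglandin E2; NADH fluorescence (360/450 nm) read 5 times over 30-s intervals, last minus first.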
An asterisk follows results filed as active; ? = inconclusive; & = joins results of further samples. On the % scale 0 is the no-effect control and ±100 the full control effect; potency means the concentration at half of the fitted maximal effect. These rows are one share of the data (hit frequency here may not be typical).

HPGD block	Molecule
-12.7%	COC(=O)COc1cccc2c(=O)n(CC(=O)N3CCCc4ccccc43)ccc12
-2.5%	C=CCNC(=O)C1CC=CCC1C(=O)O (stereo not given)
?	Cn1c(=O)c(-c2ccccc2)nc2ccccc21
3.16µM*	COC(=O)/C=C\C(=O)Nc1cccc([N+](=O)[O-])c1
-3.0%	O=C(C1CC(=O)N(C2CCCC2)C1)N1CCC(Cc2ccccc2)CC1 (stereo not given)
-6.4%	O=c1cc(CO)occ1OCc1ccccc1
-6.2%	O=C1CC(c2ccc(F)cc2)SC(N(c2ccccc2)c2ccccc2)=N1 (stereo not given)
-19.3%&-3.5%	Oc1c(C=C2N=c3ccccc3=N2)sc(=S)n1-c1ccc(F)cc1
-2.1%	CCOC(=O)/C(C#N)=C/c1cn(CCOc2ccccc2)c2ccccc12
-9.3%	COc1cc(NC(=O)c2ccc(Br)o2)ccc1NC(=O)C(C)C
-10.8%	Cc1ccccc1NC(=O)NC1(C(=O)NCCCN2CCOCC2)CCCCC1
-26.4%	COc1c2occc2c(OC)c2c(=O)cc(C(F)(F)F)oc12
-4.3%	O=C1CSC(c2ccc(F)cc2)N1c1nnc(C23CC4CC(CC(C4)C2)C3)s1 (stereo not given)
-7.3%	COc1ccc(CCN2C(=O)c3cccc4cccc(c34)C2=O)cc1OC
?	O=c1c(-c2ccc(O)cc2)coc2cc(O)ccc12
-1.4%	Cc1ccc(-n2c(SCC(=O)Nc3cc(C)on3)nc3ccccc3c2=O)cc1
3.16µM*	COc1ccc(Cn2nnc3c(=O)[nH]c(C(=O)NCCc4ccc(F)cc4)nc32)cc1OC
-8.3%	O=C(CSc1nnc(CNC(=O)c2cccs2)o1)NC1CCCCC1
-3.6%	COc1ccc(-n2c(SCC(=O)Nc3ccc([N+](=O)[O-])cc3OC)nc3ccccc32)cc1
-17.8%	FC(F)(F)c1ccc(CN2C[C@@H]3C(c4ccccc4)C4(c5ccccc5)CC3(C4)[C@H]2c2ccccc2)cc1 (stereo not given in full)
-5.9%	O=C(COC(=O)c1ccccc1C(=O)c1ccccc1)Nc1cccc([N+](=O)[O-])c1
-6.8%	Cc1ccc(Cl)cc1NC(=O)CSC(N)=O
-4.5%	O=C(Nc1ccc(OC(=O)c2ccncc2)cc1)c1ccncc1
?	CCOC(=O)c1cc2c(=O)n3ccccc3nc2n(CCCOC)c1=NC(=O)c1cccnc1
?	CCc1nnc(NC(=O)CSc2nnnn2C)s1

Marked active in HPGD block, among the entries above:
HPGD block	Molecule
3.16µM*	COC(=O)/C=C\C(=O)Nc1cccc([N+](=O)[O-])c1
3.16µM*	COc1ccc(Cn2nnc3c(=O)[nH]c(C(=O)NCCc4ccc(F)cc4)nc32)cc1OC

Rewritten with bars between the fields: part of the list above
SMILES | HPGD block
COc1cc(NC(=O)c2ccc(Br)o2)ccc1NC(=O)C(C)C | -9.3%
Cc1ccccc1NC(=O)NC1(C(=O)NCCCN2CCOCC2)CCCCC1 | -10.8%

Additional results
HPGD block	Molecule
-8.3%	CCn1c(C(C)NC(C)=O)nc2ccccc21 (stereo not given)
3.5%	CCCCNC(=O)C1CCCN1C(=O)Nc1ccccc1 (stereo not given)
-16.6%	CCN(CC)c1ccc(NC(=O)c2ccc(NC(=O)C3CCCO3)cc2)c(C)c1 (stereo not given)
-8.5%	Cc1c(C(=O)N/N=C/c2ccc(-c3ccccc3[N+](=O)[O-])o2)sc(N)c1C#N
-4.7%	C=CCNC(=O)CC(=O)N/N=C/c1ccc(C(=O)OC)cc1
-1.5%	CCOC(=O)c1ccc(CNC(=O)C(Cc2c[nH]c3ccccc23)NC(C)=O)o1 (stereo not given)
-9.1%	O=C(NCc1ccco1)C(c1ccc(F)cc1)N(Cc1cccnc1)C(=O)Cn1nnc2ccccc21 (stereo not given)
-6.3%	CCOC(=O)c1c(C)[nH]c2ccc(O)cc12
-8.0%	CC(C)NS(=O)(=O)c1ccc(NC(=O)CCc2ccccc2)cc1
-7.7%	CCOCCc1nnc(NC(=O)Cc2ccccc2)s1
-15.8%	O=C(Nc1ccccc1N1CCOCC1)c1ccc2ccccc2n1
-12.7%	O=C(c1ccco1)N1CCN(S(=O)(=O)c2cccs2)CC1
-8.6%	Cc1ccc(OCC(=O)Nc2ccc(-c3nnc(-c4ccco4)o3)cc2)cc1
-21.4%	Fc1ccc(-c2nnc3ccc(N4CCc5ccccc5C4)nn23)cc1
-13.5%	CCOC(=O)C1Oc2ccccc2C(c2cccc3ccccc23)=C1C(=O)OC (stereo not given)
-20.5%	Cc1ccc2cc(CN(CCN3CCOCC3)C(=O)NCc3ccccc3)c(=O)[nH]c2c1C
3.4%	CN(C)CCCOc1nc2c(c(=O)n(C)c(=O)n2C)n1C
?	COc1cc(OC)cc(-c2cc3nc(C)c(CCC(=O)O)c(=O)n3[nH]2)c1
8.91µM*	Cc1c(C(=O)N(C)C2CCCCC2)sc2nc3ccc(N)cc3n12
-19.1%	Cc1c(NC(=O)c2coc(=O)c(Br)c2)c(=O)n(-c2ccccc2)n1C
-0.9%	C=CCn1c(Cc2csc(N)n2)nnc1SCc1ccc(C(=O)OC)cc1
-13.0%	CCN(CC)CCCNc1nc(-c2ccccc2)nc2ccccc12
-12.5%&-9.2%&-10.6%&-19.7%&-6.6%	O=C(O)c1cc(=O)c2c(OCC(O)COc3cccc4oc(C(=O)O)cc(=O)c34)cccc2o1
-4.4%	Cc1ccc(CS(=O)(=O)CCC(=O)NCCCOC(C)C)cc1
-12.9%	COC(=O)C1C(O)=CC(=O)CC1C (stereo not given)

A draw from above in order of molar mass, low to high.
HPGD block	Molecule
-8.0%	CC(C)NS(=O)(=O)c1ccc(NC(=O)CCc2ccccc2)cc1
?	COc1cc(OC)cc(-c2cc3nc(C)c(CCC(=O)O)c(=O)n3[nH]2)c1
-1.5%	CCOC(=O)c1ccc(CNC(=O)C(Cc2c[nH]c3ccccc23)NC(C)=O)o1 (stereo not given)
-19.1%	Cc1c(NC(=O)c2coc(=O)c(Br)c2)c(=O)n(-c2ccccc2)n1C
-9.1%	O=C(NCc1ccco1)C(c1ccc(F)cc1)N(Cc1cccnc1)C(=O)Cn1nnc2ccccc21 (stereo not given)

Remaining list, next part.
HPGD block	Molecule
-2.6%	O=C(/C=C/c1cccc([N+](=O)[O-])c1)NC(=S)Nc1cccc(NC(=O)c2ccccc2Cl)c1
-6.1%	CCOC(=O)C1=C(C)OC(N)=C(C#N)C1c1cc(Cl)c(OCC(N)=O)c(OC)c1 (stereo not given)
-3.4%	COc1ccc(NS(=O)(=O)c2cc(C)ccc2OC)cc1OC
-4.7%	O=S1(=O)CC(N2CCCCC2)C(N2CCCCC2)C1 (stereo not given)
?	Cc1sc2ncnc(SCC(=O)NC3CC3)c2c1C
-21.9%	COc1ccc(-c2csc3nc(C)n(-n4cccc4)c(=O)c23)cc1
-11.7%	CCOC(=O)c1cnc2c(C)c(Cl)ccc2c1Nc1ccc(S(=O)(=O)Nc2ncccn2)cc1
-16.0%	CCCC(=O)Nc1ccc(C(=O)N/N=C/c2ccc[nH]2)cc1
?	COC(=O)CC(=O)CSc1nc2c(cc1C#N)CCC2
-12.5%	O=C(Nc1ccc(N2CCOCC2)cc1)c1cn2ccccc2n1
-1.3%	Cc1nn(C)c(C)c1S(=O)(=O)N(CC(=O)N1CCc2ccccc21)c1ccc(C(C)C)cc1
-9.2%	Cc1cccc(NC(=S)N/N=C/c2ccc(Cl)c([N+](=O)[O-])c2)c1
?	CN(C)S(=O)(=O)c1ccc(-c2cn3ccccc3n2)cc1
-9.0%	CCC(C)NC(=O)N[C@@H](CCSC)C(=O)OC (stereo not given in full)
-10.8%	Cc1cc(-c2ccccc2)nc(Oc2ccc(C(C)(C)C)cc2)c1S(C)(=O)=O
-14.1%	COc1ccc(N2CCN(CCNC(=O)Nc3ccc(Cl)cc3)CC2)cc1
-23.0%	COc1ccc(N2CCN(CCCn3c(=S)[nH]c4ncccc4c3=O)CC2)cc1
-15.5%	O=C(O)CCc1ncc(C(F)(F)F)cc1Cl
-2.8%	O=C(NC1CCCC1)C1CCCN1C(=O)Nc1ccc(Cl)cc1 (stereo not given)
-10.2%	C[N+]1(C)CCO[C@](O)(c2ccccc2)C1
5.3%	CC(=O)N(C(C)=O)c1c(C#N)c(C)n(-c2ccccc2)c1C(=O)c1ccccc1
-8.7%	Cc1cccc(C)c1NC(=O)CSc1nnc(-c2ccccc2)n1Cc1ccc2c(c1)OCO2
-1.9%	CCOC(=O)CCC(NC(=O)c1ccc(NCN2C(=O)c3ccccc3C2=O)cc1)C(=O)OCC (stereo not given)
-12.4%	COc1ccc(CCN2CN(S(=O)(=O)c3ccccc3)c3nc4ccccc4nc32)cc1OC
-8.8%	COc1ccc(NC(=O)CC2C(=O)N(c3ccc(OC)cc3)C(=O)N2CCc2cccs2)cc1 (stereo not given)
-25.1%	Cc1oc(C(=O)O)cc1COc1ccccc1Cl
-22.4%	N#Cc1c(Sc2ncc(C(F)(F)F)cc2Cl)nsc1C/C=N\OCc1c(F)cccc1Cl
-2.0%	CCS(=O)(=O)N1Cc2ccccc2CC1C(=O)Nc1nnc(SCc2ccc(C#N)cc2)s1 (stereo not given)
0.8%	O=C(NCCc1ccc(Cl)cc1)c1ncn[nH]1
-4.8%	CCCCCOC(=O)C1[C@H]2C(=O)N(Cc3cccs3)C[C@]23C=C[C@H]1O3 (stereo not given in full)
-6.1%	NS(=O)(=O)c1ccc(NC(=O)CSC2CCCCC2)cc1
-10.3%	COc1ccc(N2C(=O)CN=C2Nc2nc(C)cc(C)n2)cc1
0.4%	C=CCN1C(=O)NC2(CCCCC2)C1=O
-13.9%	CCOC(=O)CC1C(=O)NCCN1C(=O)c1c(F)cccc1F (stereo not given)
-11.0%	CC(N)(C(=O)O)c1ccc(C(=O)O)cc1 (stereo not given)
-5.2%	CS(=O)(=O)N1CCC(C(=O)Nc2ccc(OCc3ccccc3)cc2)CC1
15.8µM*	S=c1[nH]nc(-c2cccnc2)n1/N=C/c1ccc(Br)s1
-9.7%	Cc1c(C(=O)NCCCN2CCOCC2)sc2nc(-c3ccccc3)cn12
?	CN1CC=C2C(C#N)=C(N)C(C#N)(C#N)[C@H](c3cccs3)[C@H]2C1
-8.5%	O=C(COCc1nc2ccccc2c(=O)[nH]1)NC1CCCC1
-1.5%	CN(C(=S)NC1CCCCC1)C1(c2ccccc2Cl)CCCCC1=O (stereo not given)
-9.1%	Cn1c(=O)c2c(nc(Br)n2CCCc2ccccc2)n(C)c1=O
-6.8%	Cc1ccc(/C=N/NC(=O)CSc2nc3ccccc3o2)cc1
-7.0%	COc1ccc(C(=O)NC(C)c2nc3ccccc3[nH]2)cc1OC (stereo not given)
14.1µM*	CC(C)CC(=O)O/N=C1\C(=O)N(Cc2ccc(Cl)cc2)c2ccc([N+](=O)[O-])cc21
1.5%	CN1CCN(S(=O)(=O)c2cccc(C(=O)N(c3ccccn3)C3CCCCC3)c2)CC1
-8.3%	CC(=O)OCC(=O)[C@@]1(O)CCC2C3CCC4=CC(=O)CC[C@]4(C)C3C(=O)C[C@]21C (stereo not given in full)
0.2%	C/C(CC(=O)NCc1ccco1)=N\NC(=O)Cc1ccccc1
-9.6%	Cc1noc(C)c1CSCC(=O)N1CCN(c2ccc(F)cc2)CC1
-13.2%	O=C(NC1=NCCS1)c1sc2ccccc2c1Cl

(listing goes on)
HPGD block	Molecule
-10.3%	O=C(NCCCN1CCc2ccccc2C1)Nc1ccc(Br)cc1
-6.9%	Cc1ccc(C)c2[nH]c(=O)c(CN(CCN3CCCC3)C(=O)Nc3ccc(F)cc3)cc12
-13.6%	CCC(C)Sc1nc2c([nH]c3ccccc32)c(=O)n1C (stereo not given)
-10.2%	CCn1c(COc2ccccc2C)nnc1SCC(=O)NCc1ccccc1
-15.4%	Cc1cc(C)n(S(=O)(=O)/C=C/c2ccccc2)n1
-6.0%	CC[C@H](CC[C@@H](C)C1CC[C@H]2[C@@H]3CC=C4C[C@@H](O)CC[C@]4(C)[C@H]3CC[C@]12C)C(C)C (stereo not given in full)
1.41µM*	COCCNC(=O)c1cc2oc3ccccc3c2n1C
?	CCOc1cc(-c2nc3ccccn3c2NCC2CCCO2)ccc1O (stereo not given)
-3.8%	COc1ccc(-n2c(SCC(=O)Nc3ccccc3)nc3c(c2=O)SCC3)cc1
1.3%	O=C(Nc1ccccc1SCC1CSc2nc3ccccc3c(=O)n21)c1ccccc1Cl (stereo not given)
-23.0%	Cc1cc(C)nc(NS(=O)(=O)c2ccc(NC(=O)C3CC(=O)N(c4ccccc4)C3)cc2)n1 (stereo not given)
-9.9%	CC(=O)Oc1ccc(N(C(C)=O)S(=O)(=O)c2cccs2)c2ccccc12
20µM*	CCN(CC)C(=O)c1sc(N)c(C(=O)OC(C)C)c1C
0.8%	COc1ccc(NC2=NC(=S)N(c3ccc(C)cc3)C23CCCCC3)cc1
-18.0%	COc1ccc(OC(=O)Nc2ccccc2)cc1
-10.6%	CC(C)Oc1ccc(C(=O)N2CCCC2C(=O)O)cc1 (stereo not given)
?	CCOc1ccc(-c2[nH]ncc2-c2ccc(OC)c(OC)c2)c(O)c1
-1.0%	CCN(CC)S(=O)(=O)c1ccc2c(c1)nc(CCC(=O)Nc1ccc3c(c1)OCO3)n2C
-11.1%	CNS(=O)(=O)c1cccc(C(=O)Nc2cccnc2)c1
-21.4%	C=C1C(=O)[C@@]23[C@H](O)C[C@@H]4C(C)(C)CC[C@H](O)[C@@]4(C)[C@@H]2CC[C@@H]1[C@H]3O
-6.6%	Cc1nn(-c2ccccc2)c(/N=C/c2ccc(O)cc2)c1-c1ccccc1
4.1%	Cc1cc(C)c(NC(=O)c2ccc(S(=O)(=O)N(C)C)cc2)c(C)n1
-16.8%	CCOC(=O)c1c(C)n(OCc2ccccc2)c2ccc3c(no[n+]3[O-])c12
-10.0%	O=C(c1ccccc1)N1CCN(c2ccc([N+](=O)[O-])c(NCc3cccnc3)c2)CC1
